ALR inh = human ALR oxidase inhibition via reduced H2O2; P55789; purified ALR, DTT oxidation, H2O2 HRP-luminol luminescence; inhibition, % (no concentration beside the values); 3.8% of 290,000 active; AID 485317;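 active = mean and each replicate at 75% or more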;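 note: stock transfer was 7.5 nL into about 7.5 µL; 0% = neutral wells and 100% = wells with inactivated enzyme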
Target sequence (P55789 whole entry, looked up): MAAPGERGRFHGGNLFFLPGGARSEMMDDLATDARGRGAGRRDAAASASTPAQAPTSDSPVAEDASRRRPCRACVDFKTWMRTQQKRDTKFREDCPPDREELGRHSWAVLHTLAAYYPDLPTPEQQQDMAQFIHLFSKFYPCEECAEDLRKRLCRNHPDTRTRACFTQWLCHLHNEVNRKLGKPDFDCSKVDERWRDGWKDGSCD
UCH37 inh = inhibitors of human deubiquitinating enzyme UCH37. Q9Y5K5. purified proteasome/UCH37, Ub-AMC cleavage fluorescence. inhibition, % (no concentration beside the values). 0.33% of 330,000 active;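 active = mean of two replicates above 20%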;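 note: 0% = compound-free wells with enzyme and 100% = wells lacking proteasome; stock transfer was 100 nL into about 20 µL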
Target sequence (Q9Y5K5 whole entry, looked up): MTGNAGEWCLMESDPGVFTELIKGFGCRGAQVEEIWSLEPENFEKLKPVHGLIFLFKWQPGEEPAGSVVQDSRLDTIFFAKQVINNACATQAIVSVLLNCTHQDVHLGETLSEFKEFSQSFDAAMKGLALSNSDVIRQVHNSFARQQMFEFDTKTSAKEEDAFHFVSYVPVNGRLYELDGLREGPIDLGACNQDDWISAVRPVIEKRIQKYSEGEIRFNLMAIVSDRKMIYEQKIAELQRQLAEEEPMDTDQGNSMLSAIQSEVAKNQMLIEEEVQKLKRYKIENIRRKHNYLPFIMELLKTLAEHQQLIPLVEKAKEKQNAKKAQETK
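System: Proteasome-associated human UCH37 deubiquitinase; Input: 0.15 nM proteasome in added enzyme buffer; Also added: Ub-AMC substrate from 1 µM stock; Incubation: 30 min compound-proteasome preincubation then 25 min substrate reaction, room temperature; Detection: fluorescence, ex 355 nm, em 460 nm; Read-out: % inhibition of Ub-AMC cleavage fluorescence; Benchmarks: no-proteasome and no-compound wells.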
LANA-H2A inh = blocks KSHV LANA binding to histone H2A/H2B | Q9QR71 | cell-free LANA-H2A/H2B peptide, fluorescence polarization | inhibition, % (no concentration beside the values) | AID 2629 | 0.6% of 320,000 active; in the data active = inhibition mostly above about 10%, no sharp cut-off; inactive = mostly below about 6.7%;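 note: stock transfer was 7.5 nL into about 10 µL; 0% = median of vehicle wells and 100% = median of positive control wells; one replicate is shown; the record names a cut of 25% in any replicate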
FGF22 binding = FGF22 (human) thermal shift binding; Q9HCT0; recombinant FGF22 thermal shift, SYPRO orange fluorescence; percent of sucrose octasulfate shift, DMSO zero; calls only at 9.99 µM; 1.5% of 340,000 active;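 active = melting point raised past a set limit in the mean and every replicate; three in four hits are not shown here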
Target sequence (Q9HCT0 whole entry, looked up): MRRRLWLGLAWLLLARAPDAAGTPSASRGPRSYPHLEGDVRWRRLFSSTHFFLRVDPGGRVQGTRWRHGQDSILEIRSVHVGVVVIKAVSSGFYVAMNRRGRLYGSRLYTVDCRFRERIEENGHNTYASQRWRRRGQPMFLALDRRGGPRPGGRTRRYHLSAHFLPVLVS
The depositor's hits bear a star; i = inactive; x = no result given. These rows are one share of the data; rates above refer to the full screens.

entry	canonical_smiles	ALR inh	UCH37 inh
1	NC(=O)c1ccc(N=Nc2c(O)[nH]c(=O)[nH]c2=O)cc1	-12	x
2	O=C(O)c1sc2cc(Cl)ccc2c1Cl	-1	x
3	Clc1ccc(CO/N=C(\Cn2ccnc2)c2ccc(Cl)cc2Cl)c(Cl)c1	-16	x
4	C=C1C(O)[C@@H]2O[C@]3(CC[C@H](/C=C/C(C)[C@@H]4CC(C)=CC5(O[C@H](C[C@@](C)(O)C(=O)O)CCC5O)O4)O3)CC[C@H]2O[C@@H]1C(O)CC(C)[C@H]1OC2(CCCCO2)CCC1C (stereo partly drawn)	0	x
5	C/C=C(\C)C(=O)OC1C(C)=C2C(C1OC(=O)CCCCC)C(C)(OC(C)=O)CC(OC(=O)CCC)C1(O)C2OC(=O)C1(C)O (stereo not drawn)	-9	x
6	COP(=O)(OC)C(O)C(Cl)(Cl)Cl (stereo not drawn)	-9	x
7	C[C@@]1(CO)[C@H](O)CC[C@@]2(C)[C@H]1CC[C@H]1C[C@@H]3C[C@@]12CC[C@]3(O)CO	-2	x
8	Cn1cccc1CNCCc1ccccc1	0	x
9	CC(C)[C@]12O[C@H]1[C@@H]1O[C@]13[C@]1(O[C@H]1C[C@H]1C4=C(CC[C@@]13C)C(=O)OC4)[C@@H]2O	-1	x
10	Oc1cc2c(cc1O)[C@H]1c3ccccc3CN[C@@H]1CC2	99*	x

entry	LANA-H2A inh	FGF22 binding
1	-1.5	x
2	2.3	x
3	-0.9	x
4	-4.4	x
5	0.8	x
6	-1.5	x
7	9.1	x
8	8.1	x
9	-2.3	x
10	0.8	x

entry	canonical_smiles	ALR inh	UCH37 inh
11	NCCc1ccccn1	-6	x
12	C1=C(c2c[nH]c3ccccc23)CCNC1	56	x
13	CC[C@H](C)[C@@H]1O[C@@]2(C=CC1C)CC1C[C@@H](CC=C(C)C(O[C@H]3CC(OC)C(O[C@H]4CC(OC)C(O)C(C)O4)C(C)O3)C(C)C=CC=C3CO[C@@H]4C(O)C(C)=C[C@@H](C(=O)O1)[C@]34O)O2 (stereo partly drawn)	-8	x
14	Cc1ccccc1C(=O)NN=Cc1ccc(Sc2ccccn2)o1	x	1.4
15	CCCCCCNC(=O)N[C@@H](Cc1ccc(O)cc1)C(=O)NCCC[C@H]1CN2C(=NC[C@H]2C)N1CC1CCC1	x	-1.5
16	Cc1cc(N2CCNC[C@@H]2C)ccc1N1CCN[C@@H](C)C1	x	x
17	O=C(O)[C@H]1[C@H](CO)[C@H]2Cn3c(ccc(-c4ccccc4)c3=O)[C@@H]1N2S(=O)(=O)c1ccccc1F	x	x
18	O=C(Cc1ccccc1)N1CCCCN2[C@H](C1)[C@H](c1ccc(-c3ccccc3)cc1)[C@@H]2CO	x	x
19	CC=Cc1ccc2n(c1=O)C[C@@H]1[C@@H](CO)[C@H](C(=O)OC)[C@H]2N1CC1CCCCC1 (mixture of isomers)	x	x
20	O=C(O)[C@H]1[C@H](CO)[C@H]2Cn3c(ccc(-c4ccccc4F)c3=O)[C@@H]1N2C(=O)c1cccnc1	x	x

entry	LANA-H2A inh	FGF22 binding
11	-0.5	x
12	-26	x
13	3.2	x
14	x	x
15	1.6	x
16	x	i
17	x	i
18	x	i
19	x	i
20	x	i

entry	canonical_smiles	ALR inh	UCH37 inh
21	CCN(C)C(C)Cc1cccc(C(F)(F)F)c1 (stereo not drawn)	x	x
22	COC(=O)[C@@H]1[C@@H](CO)[C@@H]2Cn3c(ccc(C4=CCCCC4)c3=O)[C@H]1N2Cc1cccnc1	x	x
23	COC(=O)[C@@H]1[C@@H](CO)[C@@H]2Cn3c(ccc(-c4cccc(F)c4)c3=O)[C@H]1N2C(=O)CC1CC1	x	x
24	COC(=O)[C@H]1[C@H](CO)[C@H]2Cn3c(ccc(-c4ccccc4)c3=O)[C@@H]1N2S(=O)(=O)c1ccccc1C	x	x
25	COC(=O)[C@H]1[C@H](CO)[C@H]2Cn3c(cccc3=O)[C@@H]1N2C(=O)C1CC1	x	x
26	COC(=O)[C@@H]1[C@@H](CO)[C@@H]2Cn3c(ccc(-c4cncnc4)c3=O)[C@H]1N2S(=O)(=O)c1ccccc1C	x	x
27	CN1[C@@H]2CNc3ccccc3[C@@H]2[C@@H]1CO	x	x
28	COC(=O)[C@H]1[C@H](CO)[C@H]2Cn3c(ccc(-c4ccccc4)c3=O)[C@@H]1N2C(=O)c1ccccc1F	x	x
29	N#Cc1ccc(-c2ccc([C@H]3[C@@H](CO)N4CCCCN(C(=O)Cc5ccccc5)C[C@H]34)cc2)cc1	x	x
30	CC(C)C(CN1CCC(C)(c2cccc(O)c2)[C@@H](C)C1)NC(=O)C1Cc2ccc(O)cc2CN1 (stereo partly drawn)	x	x

entry	LANA-H2A inh	FGF22 binding
21	x	i
22	x	i
23	x	i
24	x	i
25	x	i
26	x	i
27	x	i
28	x	i
29	x	i
30	x	i

entry	canonical_smiles	ALR inh	UCH37 inh
31	CCCNC(=O)N1[C@@H]2Cn3c(ccc(-c4ccccc4OC)c3=O)[C@H]1[C@@H](C(=O)OC)[C@@H]2CO	x	x
32	CC=Cc1ccc2n(c1=O)C[C@H]1[C@H](CO)[C@@H](C(=O)OC)[C@@H]2N1CC1CCOCC1 (mixture of isomers)	x	x
33	COC(=O)[C@@H]1[C@@H](CO)[C@@H]2Cn3c(ccc(-c4ccccc4)c3=O)[C@H]1N2CCc1ccccc1	x	x
34	COC(=O)C[C@@H]1CC[C@H]2NC[C@H](O)COC[C@@H]2O1	x	x
35	Cc1ccc(OC(=O)N(C)C[C@H]2OCc3cnnn3CCCC(=O)N([C@@H](C)CO)C[C@@H]2C)cc1	x	x
36	O=C(Cc1ccncc1)N1CCCCN2[C@@H](CO)[C@H](c3ccc(C#Cc4ccccc4F)cc3)[C@@H]2C1	x	x
37	Cc1ccc(C(=O)NCCN2CCC3(CC2)C(=O)NCN3c2ccccc2)cc1	x	x
38	COc1cccc(-c2ccc([C@@H]3[C@@H](CO)N4CCCCN(C(=O)Cc5ccncc5)C[C@H]34)cc2)c1	x	x
39	COC(=O)[C@@H]1[C@@H](CO)[C@@H]2Cn3c(ccc(-c4cccc(OC)c4)c3=O)[C@H]1N2C(=O)c1ccccc1F	x	x
40	CCN1[C@@H]2c3ccc(-c4cccc(OC)c4)c(=O)n3C[C@H]1[C@H](CO)[C@H]2C(=O)OC	x	x

entry	LANA-H2A inh	FGF22 binding
31	x	i
32	x	i
33	x	i
34	x	i
35	x	i
36	x	i
37	x	i
38	x	i
39	x	i
40	x	i

From entry 33 as far as 37, copied from above:
entry	canonical_smiles	ALR inh	UCH37 inh
33	COC(=O)[C@@H]1[C@@H](CO)[C@@H]2Cn3c(ccc(-c4ccccc4)c3=O)[C@H]1N2CCc1ccccc1	x	x
34	COC(=O)C[C@@H]1CC[C@H]2NC[C@H](O)COC[C@@H]2O1	x	x
35	Cc1ccc(OC(=O)N(C)C[C@H]2OCc3cnnn3CCCC(=O)N([C@@H](C)CO)C[C@@H]2C)cc1	x	x
36	O=C(Cc1ccncc1)N1CCCCN2[C@@H](CO)[C@H](c3ccc(C#Cc4ccccc4F)cc3)[C@@H]2C1	x	x
37	Cc1ccc(C(=O)NCCN2CCC3(CC2)C(=O)NCN3c2ccccc2)cc1	x	x

entry	LANA-H2A inh	FGF22 binding
33	x	i
34	x	i
35	x	i
36	x	i
37	x	i

Other compounds.
entry	canonical_smiles	ALR inh	UCH37 inh
41	O=C(Cc1ccccc1)N1CCCCN2[C@H](CO)[C@@H](c3ccc(C#CC4(O)CCCC4)cc3)[C@H]2C1	x	x
42	CC=Cc1ccc2n(c1=O)C[C@@H]1[C@@H](CO)[C@H](C(=O)OC)[C@H]2N1S(=O)(=O)c1cccc(C)c1 (mixture of isomers)	x	x
43	O=C(Cc1ccccn1)N1CCCCN2[C@@H](CO)[C@@H](c3ccc(-c4ccccc4F)cc3)[C@@H]2C1	x	x
44	O=P(OCCCl)(OCCCl)OCCCl	x	x
45	O=C(O)[C@H]1[C@H](CO)[C@H]2Cn3c(ccc(-c4ccncc4)c3=O)[C@@H]1N2S(=O)(=O)c1ccccc1F	x	x
46	O=C(Cc1cccnc1)N1CCCCN2[C@@H](CO)[C@H](c3ccc(/C=C/c4ccccc4)cc3)[C@@H]2C1	x	x
47	COc1ccc(-c2ccc([C@@H]3[C@H](CO)N4CCCCN(C(=O)Cc5ccccc5)C[C@@H]34)cc2)cc1	x	x
48	COc1cccc(-c2ccc([C@H]3[C@@H](CO)N4CCCCN(C(=O)Cc5ccncc5)C[C@H]34)cc2)c1	x	x
49	COc1ccc(C#Cc2ccc([C@H]3[C@@H](CO)N4CCCCN(C(=O)Cc5ccccc5)C[C@H]34)cc2)cc1	x	x
50	CCCNC(=O)[C@@H]1[C@@H](CO)[C@@H]2Cn3c(cccc3=O)[C@H]1N2CCC	x	x

entry	LANA-H2A inh	FGF22 binding
41	x	i
42	x	i
43	x	i
44	x	i
45	x	i
46	x	i
47	x	i
48	x	i
49	x	i
50	x	i

entry	canonical_smiles	ALR inh	UCH37 inh
51	c1ccc(CCN2CCC3CCNC3C2)cc1 (stereo not drawn)	x	x
52	CN1c2ccc(Br)cc2[C@@H]2NCC[C@@H]2[C@@H]1CO	x	x
53	O=C(Cc1cccnc1)N1CCCCN2[C@H](CO)[C@H](c3ccc(C#CC4CC4)cc3)[C@@H]2C1	x	x
54	Fc1ccc2nc(-c3ccc(CN4CCC(n5nnc6ccccc65)CC4)cc3)c(-c3ccccc3)nc2c1	x	x
55	Clc1cc(Cl)cc(CN2Cc3cc(Br)ccc3-n3nncc3C2)c1	x	x
56	CCCN(CCC)CCc1c[nH]c2ccccc12	x	x
57	O=C(Cc1ccccc1)N1CCCCN2[C@H](CO)[C@H](c3ccc(C#Cc4ccccc4)cc3)[C@@H]2C1	x	x
58	COc1ccc(C#Cc2ccc([C@@H]3[C@H](CO)N4CCCCN(C(=O)Cc5ccccc5)C[C@@H]34)cc2)cc1	x	x
59	O=C(Cc1cccnc1)N1CCCCN2[C@H](C1)[C@@H](c1ccc(C#CC3CC3)cc1)[C@@H]2CO	x	x
60	O=C(Cc1ccccn1)N1CCCCN2[C@H](CO)[C@@H](c3ccc(-c4ccccc4F)cc3)[C@@H]2C1	x	x

entry	LANA-H2A inh	FGF22 binding
51	x	i
52	x	i
53	x	i
54	x	i
55	x	i
56	x	i
57	x	i
58	x	i
59	x	i
60	x	i

entry	canonical_smiles	ALR inh	UCH37 inh
61	COC(=O)[C@@H]1[C@@H](CO)[C@@H]2Cn3c(ccc(C4=CCCC4)c3=O)[C@H]1N2S(=O)(=O)c1cn(C)cn1	x	x
62	CC=Cc1ccc2n(c1=O)C[C@H]1[C@H](CO)[C@@H](C(=O)N(C)C)[C@@H]2N1C (mixture of isomers)	x	x
63	N#Cc1ccc(NC(=S)N2Cc3ccc(Br)cc3-n3nncc3C2)cc1	x	x
64	CC[C@]12CCN(CC3(O)CC3)C(Cc3ccc(O)cc31)C2(C)C	x	x
65	CC1C2Cc3ccc(O)cc3C1(C)CCN2CC1CC1 (stereo not drawn)	x	x
66	COC(=O)C1C(OC(=O)c2ccccc2)CC2CCC1[N+]2(C)C (stereo not drawn)	x	x
67	CCN(CC)C(=O)[C@@H]1C=C2c3cccc4[nH]c(Br)c(c34)C[C@H]2N(C)C1	x	x
68	COC(=O)[C@H]1[C@H](CO)[C@H]2Cn3c(ccc(-c4cccc(F)c4)c3=O)[C@@H]1N2Cc1ccncc1	x	x
69	COC(=O)[C@H]1[C@H](CO)[C@H]2Cn3c(cccc3=O)[C@@H]1N2C(=O)C1CCC1	x	x
70	N#Cc1cccc(-c2ccc([C@@H]3[C@@H](CO)N4CCCCN(C(=O)Cc5ccncc5)C[C@H]34)cc2)c1	x	x

entry	LANA-H2A inh	FGF22 binding
61	x	i
62	x	i
63	x	i
64	x	i
65	x	i
66	x	i
67	x	i
68	x	i
69	x	i
70	x	i

entry	canonical_smiles	ALR inh	UCH37 inh
71	Clc1ccc([C@@H]2CC3CCC2N3)cn1 (stereo partly drawn)	x	x
72	O=C(Cc1cccnc1)N1CCCCN2[C@@H](CO)[C@H](c3ccc(C#CC4CCCC4)cc3)[C@@H]2C1	x	x
73	COc1cccc(-c2ccc3c(c2)C2c4cnnn4-c4ccccc4C(=O)N2CC3)c1 (stereo not drawn)	x	x
74	O=C(c1ccccc1)N1Cc2cc(Br)ccc2-n2nncc2C1	x	x
75	O=C(O)[C@@H]1[C@@H](CO)[C@@H]2Cn3c(ccc(C4=CCCCC4)c3=O)[C@H]1N2C(=O)Cc1ccccn1	x	x
76	COC(=O)[C@H]1[C@H](CO)[C@H]2Cn3c(ccc(-c4cccc(F)c4)c3=O)[C@@H]1N2Cc1cccnc1	x	x

entry	LANA-H2A inh	FGF22 binding
71	x	i
72	x	i
73	x	i
74	x	i
75	x	i
76	x	i
